# eIF4H inh = inhibitors of RNA binding by human eIF4H; Q15056; eIF4H fluorescence polarization binding assay; inhibition, % at 35 µM; 0.94% of 290,000 active; AID 2012;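 active = 50% or more with normal probe brightness, or confirmed in later tests; inconclusive = above 50% with abnormal brightness, or retests that disagree; inactive = below 50% or failed in later tests; about a fifth of its hits are not listed in these tables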;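 note: calls also rest on retests at 20 µM and on dose response follow-up; 0% = protein and probe with vehicle and 100% = probe without protein; strong numbers were not always called active; many hits fall short of the cut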
# Env fusion inh = blocks HIV Env-driven cell-cell fusion. AID 651610. 1.1% of 360,000 active. inhibition, % at 12.3 µM. HeLa-JRFL Env/CEM21 cell fusion, luciferase;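 active = mean replicate inhibition score of at least 50 and every replicate individually at or above 50; inconclusive = only one of the two criteria met; inactive = mean below 50 and not all replicates reaching 50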;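 note: 0% = plate neutral controls and 100% = maraviroc near 300 nM; one replicate is shown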
# MT1-MMP act inh = inhibitors of human MT1-MMP activation | P50281 | HT1080 RFP-PRO-GFP cells, GFP/RFP ratio fluorescence, overnight; percent of plate control window, DMSO zero | GFP/RFP ratio change, % at 20 µM | 0.061% of 360,000 active | AID 651647;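 active = GFP/RFP ratio change of at least 30% with cell ATP level not reduced by more than half and red fluorescence within 50% of control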; note: strong numbers were not always called active
#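 Assay system – RFP-PRO-GFP reporter HT1080 cells · Compound dosing – single dose of 20 µM compound, 1% DMSO final · Incubation – overnight compound exposure at 37 °C · Measure – GFP/RFP fluorescence ratio · Benchmarks – DMSO wells and RFP-L50D-GFP cells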
# Rce1 inhib = yeast Ras-converting enzyme inhibition; calls only; yeast membranes, quenched prenylated peptide cleavage fluorescence; Q03530; 0.27% of 290,000 active;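 active = fall in fluorescence gain of 50% or more versus controls, with final raw signal at or below 3038400; inconclusive = same 50% fall but final raw signal above 3038400; inactive = fall in fluorescence gain under 50%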;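 note: plate controls were neutral control wells for no effect and wells lacking membranes for full effect; tested at 10 µM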
# CSC inhib = blocks cancer stem cells; inhibition, % at 7.5 µM; cancer stem cell-like cells viability, luminescence; AID 2717; 1.1% of 300,000 active;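 active = mean at 75% or more and at least half the replicates too; inconclusive = mean and replicates disagree; tested in HMLE shEcad cells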;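 note: 0% = median of negative and 100% = median of positive control wells; the first replicate is given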
# PABP polyA inh = blocks human PABP binding to poly(A) RNA | inhibition, % at 35 µM | fluorescence polarization | 1% of 290,000 active | P11940;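 active = 50% or more with normal probe brightness, or confirmed in later tests; inconclusive = above 50% with abnormal brightness, or retests that disagree; inactive = below 50% or failed in later tests; about a fifth of its hits are not listed in these tables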;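 note: calls also rest on retests at 20 µM and on dose response follow-up; controls were probe without protein and protein plus probe with vehicle; some compounds called inactive have numbers as strong as hits; many hits fall short of the cut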
# Target sequence (P11940 whole entry, looked up): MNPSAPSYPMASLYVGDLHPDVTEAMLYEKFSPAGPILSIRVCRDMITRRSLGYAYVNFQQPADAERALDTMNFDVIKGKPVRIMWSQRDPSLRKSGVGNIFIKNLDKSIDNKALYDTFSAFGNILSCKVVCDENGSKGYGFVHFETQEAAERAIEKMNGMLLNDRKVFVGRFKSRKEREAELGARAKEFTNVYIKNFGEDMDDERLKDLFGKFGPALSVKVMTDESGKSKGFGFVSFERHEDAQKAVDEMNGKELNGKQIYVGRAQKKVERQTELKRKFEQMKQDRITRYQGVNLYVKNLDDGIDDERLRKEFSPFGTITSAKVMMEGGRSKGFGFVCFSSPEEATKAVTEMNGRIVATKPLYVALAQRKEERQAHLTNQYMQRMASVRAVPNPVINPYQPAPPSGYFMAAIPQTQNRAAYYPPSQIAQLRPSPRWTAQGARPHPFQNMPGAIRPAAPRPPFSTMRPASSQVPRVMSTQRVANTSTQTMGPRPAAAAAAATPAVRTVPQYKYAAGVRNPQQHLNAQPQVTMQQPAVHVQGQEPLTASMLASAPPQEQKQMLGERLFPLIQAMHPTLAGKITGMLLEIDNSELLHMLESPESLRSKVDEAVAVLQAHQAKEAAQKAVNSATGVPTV
# UUG fidelity = modulators of start codon recognition fidelity in yeast; 0.13% of 350,000 active; activity score, % at 18.7 µM; S. cerevisiae UUG-firefly luciferase reporter, luminescence/redox ratio;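 active = replicate mean at a twofold rise or more, about +100% in these data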;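 note: firefly luciferase made from a UUG start codon reports start codon fidelity; reporter light over untreated wells divided by growth signal over untreated wells; some hits fall short of that in this replicate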
# MT1-MMP act inh RFP = recorded beside MT1-MMP act inh, whose call it bears; RFP signal change, %; measured here: RFP expression control read;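 0 = vehicle wells; hits needed this value within 50% of zero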
# Active calls of the source: *; i = inactive; u = inconclusive; x = no result given. Random draw from the library; 3% or so of the library scored in one or more.
no.	smiles	Rce1 inhib	Env fusion inh	eIF4H inh	PABP polyA inh	MT1-MMP act inh RFP	MT1-MMP act inh	CSC inhib	UUG fidelity
1	O=C(NCC(c1ccco1)N1CCN(c2ccccc2)CC1)C(=O)NC1CCCCC1 (stereo not drawn)	i	-1	x	x	-5	2	-9	-11
2	Cc1nc(C)c(-c2csc(Nc3ccc(O)cc3C)n2)s1	x	-18	-4	8	-4	6	2	-13
3	Cc1ccn2c(-c3csc(NCc4ccccc4)n3)c(C)nc2c1	i	x	4	-3	-20	-2	x	x
4	COc1cccc(NC(=O)C2(C)CCN2Cc2cccc(OC)c2F)c1 (stereo not drawn)	x	19	x	x	-2	-1	x	-9
5	O[C@@H]1C[C@H](c2ccccc2)N(Cc2cccs2)C[C@H]1n1cc(C2CC2)nn1	x	2	x	x	-3	2	x	1
6	O=C(NNc1ccccc1Br)C(=O)n1ccc2ccccc21	i	x	-6	19	3	-2	85*	x
7	CCOC(=O)c1cn(CC#N)c2cc(F)c(F)cc2c1=O	i	-13	4	6	3	0	-2	x
8	CCN(CC)CC(O)Cn1c(C)c(-c2ccccc2)c2cc([N+](=O)[O-])ccc21 (stereo not drawn)	i	-1	-12	-14	-1	-4	21	-11
9	O=C(NC(c1ccccc1)c1ccccc1)C1CCCN(S(=O)(=O)c2cnc[nH]2)C1 (stereo not drawn)	i	-89	2	2	7	1	-6	-13
10	COc1ccc(C(=O)COC(=O)/C=C/c2ccccc2)c(OC)c1	x	x	x	x	2	-1	2	-13
11	O=C(NC1CCCCC1)C1CC(O)CN1C(=O)OCc1ccccc1 (stereo not drawn)	i	x	-3	-14	9	3	12	x
12	COc1ccccc1N1CCN(C(=O)CCC(=O)O)CC1	i	7	22	25	5	0	-7	-6

# Some of the entries above, reformatted:
# Value order: Rce1 inhib | Env fusion inh | eIF4H inh | PABP polyA inh | MT1-MMP act inh RFP | MT1-MMP act inh | CSC inhib | UUG fidelity
[7] CCOC(=O)c1cn(CC#N)c2cc(F)c(F)cc2c1=O
 : i | -13 | 4 | 6 | 3 | 0 | -2 | x
[12] COc1ccccc1N1CCN(C(=O)CCC(=O)O)CC1
 : i | 7 | 22 | 25 | 5 | 0 | -7 | -6
[4] COc1cccc(NC(=O)C2(C)CCN2Cc2cccc(OC)c2F)c1 (stereo not drawn)
 : x | 19 | x | x | -2 | -1 | x | -9
[11] O=C(NC1CCCCC1)C1CC(O)CN1C(=O)OCc1ccccc1 (stereo not drawn)
 : i | x | -3 | -14 | 9 | 3 | 12 | x
[9] O=C(NC(c1ccccc1)c1ccccc1)C1CCCN(S(=O)(=O)c2cnc[nH]2)C1 (stereo not drawn)
 : i | -89 | 2 | 2 | 7 | 1 | -6 | -13

# The results go on.
no.	smiles	Rce1 inhib	Env fusion inh	eIF4H inh	PABP polyA inh	MT1-MMP act inh RFP	MT1-MMP act inh	CSC inhib	UUG fidelity
13	COC(=O)CSc1nnc(-c2ccc(OC)cc2OC)o1	i	-71	14	21	-2	4	-6	-21
14	O=C(N/N=C\C=C\c1ccc(Br)cc1)c1ccc2c(c1)OCO2	x	5	-44	-33	4	4	9	-11
15	CC1C/C(=N/O)C(C)CN1 (stereo not drawn)	i	x	-1	-2	4	1	-8	-3
16	CCOC(=O)c1c(C)c(C)n(Cc2ccc(OC)c(OC)c2)c1C	i	15	-4	20	-8	-7	-9	2
17	CC1Cc2nc(SCC(=O)Nc3ccc4c(c3)OCCO4)n(C)c(=O)c2S1 (stereo not drawn)	i	x	3	-1	-11	-3	-5	16
18	COc1ccc(-c2[nH]c(-c3ccc4c(c3)OCO4)nc2-c2ccccc2)cc1	u	39	3	-4	-6	7	-2	-11
19	COCC(=O)N1CCN(c2cccc(Cl)c2)CC1	i	5	-6	-7	3	-1	-8	x
20	O=C(Nc1cccc(-n2cnnn2)c1)c1cccnc1	i	-4	-2	4	0	-4	-14	-11
21	Cc1cc(C)cc(C(O)c2ncc(-c3ccc4ccccc4c3)[nH]2)c1 (stereo not drawn)	x	-8	x	x	-3	0	x	-7
22	CCOc1ccc(N(CC(=O)Nc2ccc(Br)cc2)S(C)(=O)=O)cc1	i	-10	-6	3	-1	3	-1	-16
23	CCOc1ccc(/C=N/NC(=O)c2cccc3ccccc23)c(OCC)c1	i	18	-10	-4	-1	-4	-6	-16
24	O=C(NCCC(=O)N1CCN(c2ccccc2F)CC1)c1ccco1	i	-3	x	x	3	-1	-11	2
25	Cc1cccc(OC(C)C(=O)N(Cc2cccs2)C2CCS(=O)(=O)C2)c1C (stereo not drawn)	i	u	-8	-6	2	0	-5	-5
26	CCCCc1nnc(NC(=O)CCSc2ccccc2)s1	i	-24	-5	-7	0	-4	-7	-18
27	CCOc1ncccc1C(=O)N1CCN(c2ccc(C(F)(F)F)cn2)CC1	i	4	2	4	-10	1	x	x
28	Cc1ccccc1C1NC(=O)Cc2ccccc21 (stereo not drawn)	i	x	-3	-3	2	3	-6	-10
29	CCOC(=O)[C@H]1[C@H]2COc3ccccc3[C@@H]2N2C(=O)CNC(=O)[C@@]12C	x	14	x	x	3	-1	3	0
30	COCCNC(=O)C1(C)CCN(Cc2ccc(C(C)C)cc2)C1 (stereo not drawn)	x	4	x	x	2	6	x	-10
31	Cc1ccc(N(C(=O)c2snc(C(N)=O)c2N)C(C(=O)NC2CCCC2)c2ccc(C)o2)cc1 (stereo not drawn)	i	17	-3	2	-3	-1	-3	-17
32	COc1ccc(C[C@H]2CN3C(=NC[C@@H]3Cc3ccc(O)cc3)N2C[C@H](C)NC(=O)CCC2CCCCC2)cc1	i	-100	-5	1	-9	10	3	-10
33	COc1cc(/C=C/C(=O)c2c(O)ccc3c(C)cc(=O)oc23)ccc1O	i	x	-1	15	-6	4	x	4
34	CSc1sc(C(=O)NN)c2c1C1(CCC2)SCCS1	i	0	-11	-3	0	-2	20	-22
35	Cc1ccc(S(=O)(=O)c2ccc(Cl)cc2)cc1S(N)(=O)=O	i	-8	-1	6	-2	-2	-21	3
36	O=C(c1ccco1)N1CCN(C(c2ccc(F)cc2)c2nnnn2CC2CCCO2)CC1 (stereo not drawn)	i	x	-7	4	8	1	-3	-6

# Full records from above.
# Results for Cc1ccc(S(=O)(=O)c2ccc(Cl)cc2)cc1S(N)(=O)=O → Rce1 inhib = i; Env fusion inh = -8; eIF4H inh = -1; PABP polyA inh = 6; MT1-MMP act inh RFP = -2; MT1-MMP act inh = -2; CSC inhib = -21; UUG fidelity = 3
# Results for Cc1ccccc1C1NC(=O)Cc2ccccc21 (stereo not drawn) → Rce1 inhib = i; Env fusion inh = x; eIF4H inh = -3; PABP polyA inh = -3; MT1-MMP act inh RFP = 2; MT1-MMP act inh = 3; CSC inhib = -6; UUG fidelity = -10

# The list goes on.
no.	smiles	Rce1 inhib	Env fusion inh	eIF4H inh	PABP polyA inh	MT1-MMP act inh RFP	MT1-MMP act inh	CSC inhib	UUG fidelity
37	O=C(CCC(=O)N1CCN(S(=O)(=O)c2ccccc2)CC1)c1cccs1	x	-14	5	2	1	0	-14	-10
38	Cc1ccc(F)cc1C(=O)N1CCCC(c2cc(C(=O)NCc3ccccc3)no2)C1 (stereo not drawn)	x	9	x	x	-6	5	x	-6
39	Cc1ccc(NC(=O)c2cc3cccc([N+](=O)[O-])c3[nH]2)cc1	x	-127	-6	3	-13	3	4	x
40	COc1ccc(Nc2nc(C(=O)NCCCN3CCOCC3)cs2)cc1	x	-16	-6	-10	4	-14	-7	-3
41	NS(=O)(=O)c1ccc(CCNC/C=C/c2ccccc2)cc1	i	-1	-4	-8	2	3	9	-23
42	Cc1cc(Nc2ccc(Cl)cc2)nc(-c2ccccc2O)n1	i	18	-16	3	-4	-3	28	-6
43	CCN(CC)C(=O)COc1ccc(/C(C)=N/NC(=O)c2ccccc2O)cc1	i	-6	15	14	2	-4	-8	x
44	CCc1nnc(NC(=O)C2CCN(C(=O)NC3CCCCC3)CC2)s1	i	-13	6	5	2	-1	16	-11
45	COc1ccccc1Cc1c(-c2ccc(C)cc2)nc2c(C)cc(Br)cn12	x	-3	x	x	2	5	x	-8
46	CCN(CC)S(=O)(=O)c1ccc2c(c1)N(CC(=O)NCc1ccco1)C(=O)CO2	i	5	-1	12	2	4	16	-13
47	Cc1cc(C)cc(N2CC(C)(C)C2=O)c1	i	-2	3	11	-2	2	-6	x
48	O=S(=O)(Nc1cccc(-c2ccc3nncn3n2)c1)c1cccc(F)c1	i	-8	x	x	1	3	-4	x

# Entries by screen from the entries so far.
# Nos. 39 to 42 in eIF4H inh, in turn: -6, -6, -4, -16
# Nos. 39 to 42 in PABP polyA inh, in turn: 3, -10, -8, 3

# The list goes on.
no.	smiles	Rce1 inhib	Env fusion inh	eIF4H inh	PABP polyA inh	MT1-MMP act inh RFP	MT1-MMP act inh	CSC inhib	UUG fidelity
49	Cc1ccc(CN(C)CC(=O)Nc2cccc([N+](=O)[O-])c2)o1	i	2	6	6	1	3	-2	x
50	Cc1nn(Cc2ccccc2Cl)c(C)c1NC(=O)c1nc2ncccn2n1	i	x	-4	-2	8	7	-3	-11
51	COc1ccc(C)cc1NC(=O)c1ccc(OCc2c(C)noc2C)cc1	x	-4	x	x	-1	3	2	x
52	CCCCc1nc2sc3c(c2c(=O)[nH]1)CC(C)(C)OC3	i	-7	x	x	-1	3	6	x
53	N#C/C(=C/c1cc(Br)cs1)C(=O)NCC1CCCO1 (stereo not drawn)	i	x	-8	3	6	4	-11	-14
54	CCc1ccc(NCc2ccc(OC)c(Cn3ccnc3)c2)cc1	i	12	5	-5	0	3	16	-14
55	Cc1ccc(NC(=O)c2ccccc2NC(=O)c2cccs2)cc1	i	-7	-6	-8	-2	-3	-8	-16
56	O=C(CCC(=O)N1CCOc2ccc(Cl)cc21)NCCCN1CCN(c2ccccc2F)CC1	i	9	10	-5	-3	3	14	4
57	CC(=O)c1ccc(OCc2cccc(C(F)(F)F)c2)cc1O	i	-7	7	-4	0	-2	11	x
58	C/C(Cc1ccccc1)=N\NC(=O)CNC(=O)c1ccc(C(C)(C)C)cc1	i	1	-2	-9	6	4	2	x
59	N[C@@H](Cc1ccccc1)C(=O)N1CCC(C(=O)NCC(=O)Nc2ccc(F)cc2)CC1	i	2	20	12	8	2	23	x
60	Nc1nc(-c2ccc3c(c2)CCCC3)cs1	x	x	6	-8	-2	3	-5	-8
61	Cc1ccccc1C(=O)N1CCC(C(=O)NC2CCCCC2)CC1	i	3	8	7	-2	-4	x	15
62	O=C(NC1CCCCC1)c1cccnc1C(=O)O	i	-78	-7	3	5	-1	-4	-14
63	COc1ccc(CCNC(=O)c2ccc(CNS(=O)(=O)c3ccc(C(C)(C)C)cc3)cc2)cc1OC	i	3	-2	10	-2	2	13	-20
64	O=C(O)CN1C(=O)/C(=C\c2cc(Br)ccc2OCc2ccc(Cl)cc2Cl)SC1=S	i	x	88*	63*	-2	-2	108*	-2
65	CC(NCc1ccc(OCC(N)=O)cc1)C12CC3CC(CC(C3)C1)C2 (stereo not drawn)	i	28	-4	-4	0	0	-18	-4
66	O=C(C/C=N/OCc1c(Cl)cccc1Cl)c1cnc(-c2ccccc2)s1	i	x	-15	7	1	-2	-3	-15
67	COc1ccccc1C(=O)NC(=S)Nc1ccc(N2CCN(C(=O)c3ccco3)CC2)cc1	i	19	0	-3	-23	-7	12	-11
68	CC(=O)N1c2ccc(S(=O)(=O)NCC3CCC(C(=O)N4CCCCC4)CC3)cc2CC1C (stereo not drawn)	i	-5	-18	-2	-2	4	-9	1
69	O=C(Cn1nc(-c2cccs2)ccc1=O)Nc1ccc(Br)cc1	i	3	-3	7	-2	4	5	10
70	O=C(c1cc2ccccc2o1)N(Cc1nnc(-c2ccccc2Cl)o1)C1CC1	i	-23	x	x	-1	6	-4	-5

# Source: PubChem
